Screening results from PubChem.
Biofilm kill mix: mixture kills Candida albicans biofilm cells. inhibition, % at 7.6 µM. C. albicans biofilm persisters + clotrimazole, fluorescence viability; primary screen in compound mixtures of four per well. actives 0.02% (n = 120,000). AID 1242;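 active means inhibition above 30.3% in the primary screen of four-compound pools, then above 30% when the compound was retested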;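 further: compounds exposed to preformed 24 h biofilms for 48 h; the number belongs to the whole pool; some results filed as inactive read as strong as hits; inactives centre near 12; 0% = biofilm with clotrimazole alone and 100% = kill control; retested singly at about 60 µM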
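Test system: C. albicans CAF4-2 wild-type biofilms; buffer or medium: RPMI/MOPS medium, pH 7.0; schedule: 24 h biofilm formation, then 48 h compound exposure, 37 °C; detection: Alamar Blue fluorescence; measure: percent inhibition of biofilm viability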
* hit, by the source's call. Not all compounds are listed; rates above refer to the full screens.

mol	Biofilm kill mix
Fc1ccc(N2CCN(Cc3cnc(Cl)s3)CC2)cc1	16
CCCCC(=O)N1CCCC(c2nc(-c3cccc(OC)c3)no2)C1 (stereo unspecified)	2
N=C1C(=O)OCC1c1ccccc1NC(=O)c1ccccc1 (stereo unspecified)	11
COc1cc(NC(=O)Nc2ccc(C)cc2)cc([N+](=O)[O-])c1	4
COc1ccc(-n2cc(CN(C)CCO)c(-c3cccc(F)c3)n2)cc1	15
Cc1ccc(NS(=O)(=O)c2cc(N)ccc2Cl)c(C)c1	2
O=C/C(=C\Nc1ccc(S(=O)(=O)CCO)cc1)c1nc2cc(Cl)ccc2o1	4
Cc1ccc(C)c2sc(NC(=O)CN3C(=O)CCC3=O)nc12	14
O=C(/C=C/c1cccc(F)c1)Nc1nccs1	8
COc1ccc(OC)c(S(=O)(=O)NCc2cn3ccsc3n2)c1	8
OCCNC(=S)NCc1ccccc1	13
COc1ccc(N2CCN(C(CNC(=O)C(=O)NCc3cccnc3)c3ccco3)CC2)cc1 (stereo unspecified)	14
NC(=O)C[N+]1(CC#CC(O)(c2ccccc2)c2ccccc2)CCCC1	25
COc1ccc2nc(NC(=S)NC(=O)c3ccco3)sc2c1	8
Cc1csc2ncnc(N3CCN(C(=O)Nc4ccc(OC(F)(F)F)cc4)CC3)c12	1
CN(C(=O)C1CCN(S(=O)(=O)c2cccs2)CC1)c1ccccc1	14
C[C@H]1C[C@H]2[C@@H]3CCC4=CC(=O)C=C[C@]4(C)[C@@]3(Cl)[C@@H](O)C[C@]2(C)[C@@]1(O)C(=O)CO	10
O=c1[nH]cnc2c1ncn2Cc1ccc([N+](=O)[O-])cc1	17
CC(/C=N/Nc1nncc(=O)[nH]1)=C\c1ccccc1	11
O=C(Nc1ccc(F)cc1)c1nc[nH]c1C(=O)Nc1ccc([N+](=O)[O-])cc1	-5
CCCN1CCN(CCCNC(=O)c2cc3c(=O)[nH]c4ccc(C)cc4c3s2)CC1	16
O=C(CCCc1ccccc1)Nc1nncs1	12
Nc1nc(N)c2nc(-c3ccccc3)c(N)nc2n1	13
O=S(=O)(c1ccc(-c2ccon2)s1)N1CCCC1	24
CC(Oc1ccccc1)C(=O)Nc1nnc(C2CCCCC2)s1 (stereo unspecified)	20

Gathered by group, those above containing a furan ring, fused or not.
mol	Biofilm kill mix
COc1ccc(N2CCN(C(CNC(=O)C(=O)NCc3cccnc3)c3ccco3)CC2)cc1 (stereo unspecified)	14
COc1ccc2nc(NC(=S)NC(=O)c3ccco3)sc2c1	8

Additional structures follow.
mol	Biofilm kill mix
CC1(C)CC(=O)C(N=Nc2ccc(S(=O)(=O)N3CCCCCC3)cc2)=C(O)C1	-1
OCCN(CCO)c1ccc(C(c2ccc(Cl)cc2)c2ccc(N(CCO)CCO)cc2Cl)c(Cl)c1	27
CN(C)/C=N/c1nc2nccc(-c3cccnc3)n2n1	1
Oc1cccc(/C=N/N2CCN(C3c4ccccc4-c4ccccc43)CC2)c1	21
Nc1ccc(S(=O)(=O)Nc2nc(-c3ccccc3)cc(-c3ccccc3)n2)cc1	6
COc1ccc(-n2c(CCc3ccccc3)n[nH]c2=S)cc1	17
CCC(CO)Nc1ncc([N+](=O)[O-])cc1C#N (stereo unspecified)	8
COc1ccccc1C(=O)C1CCCN(Cc2ccc(Oc3ncccn3)cc2)C1 (stereo unspecified)	29
CC(=O)Nc1ccc(S(=O)(=O)NCCCN2CCN(Cc3ccccc3)CC2)cc1Cl	10
CCOC(=O)C(Sc1nnc(-c2ccncc2)o1)C(C)=O (stereo unspecified)	9
Oc1ccccc1/C=N/Nc1nn[nH]n1	13
C/C(CCc1oc2ccc(Br)cc2c1-c1ccc(C)o1)=N/O	8
CC(C)N(C)CCOC(=O)c1ccccc1Br	8
O=C(/C=C/c1ccc(-c2ccccc2[N+](=O)[O-])o1)c1ccco1	18
NCCCC[C@H](N)c1nnc([C@H](CCC(=O)O)NC(=O)C2CCNCC2)o1	21
O=C(O)CCn1nnc(-c2ccccc2)n1	4
Cc1ccc(NC(=O)c2cc(-c3ccccc3)nn2-c2ccccc2)c(Br)c1	1
Cc1ccc(Cn2ccnc2C(=O)Nc2ccccc2)cc1	18
CC1CN(C(=O)/C(C#N)=C2\N=C(NC(=O)c3ccccc3Cl)c3ccccc32)CC(C)O1 (stereo unspecified)	17
O=[N+]([O-])c1ccc(OCc2cnc(Cl)s2)cc1	6
CC(=O)Nc1ccc(S(=O)(=O)N2CC3(C)CC2CC(C)(C)C3)cc1 (stereo unspecified)	15
CC(C)N1CCC(N2CCN(Cc3nc4ccccc4s3)CC2CCO)CC1 (stereo unspecified)	18
CCC1=NN2C(=N)/C(=C\c3ccc(OCc4cc(=O)n5nc(CC)sc5n4)c(OC)c3)C(=O)N=C2S1	10
COC(=O)C/C=C/[C@@H](C)[C@@H](/C=N/OC[C@@H](C)[C@H](OCc1ccccc1)C(C)C)NS(=O)(=O)c1ccc(C)cc1	14
COc1cc(/C=C2\SC(=O)N(CC(=O)Nc3cccc(C)c3)C2=O)cc([N+](=O)[O-])c1O	9

Part of the list above, with each value named.
NCCCC[C@H](N)c1nnc([C@H](CCC(=O)O)NC(=O)C2CCNCC2)o1
  Biofilm kill mix: 21
O=C(O)CCn1nnc(-c2ccccc2)n1
  Biofilm kill mix: 4
Cc1ccc(NC(=O)c2cc(-c3ccccc3)nn2-c2ccccc2)c(Br)c1
  Biofilm kill mix: 1
Cc1ccc(Cn2ccnc2C(=O)Nc2ccccc2)cc1
  Biofilm kill mix: 18

Further results
mol	Biofilm kill mix
CCOc1ccc(-c2csc(NC(=O)CSC3=NC(=O)CN3C(C)=O)n2)c2ccccc12	18
CCOc1cc(/C=N/NC(=O)CSc2nncn2C)ccc1OCc1cccc(C)c1	13
O=C(CC1NCCN(Cc2ccccc2)C1=O)Nc1ccccc1 (stereo unspecified)	18
OCCOCCOc1ccccc1OCCOCCO	27
CC(=O)OCCOc1nc(NC(C)C)nc(NC(C)C)n1	11
COc1ccc(N2CCN(C(=O)CSc3ccc(C)cc3)CC2)cc1	0
COc1ccc(S(=O)(=O)N(CC(=O)NC2CC2)c2ccc(C)cc2)cc1	9
CCOC(=O)c1ccc(-c2ccc(C3Nc4ccccc4C(=O)N3O)o2)cc1 (stereo unspecified)	17
N#Cc1ccccc1Cn1cc(/C=N/Nc2ccc([N+](=O)[O-])cn2)c2ccccc21	11
COC(=O)c1ccccc1NC(=O)CN(C)Cc1ccccc1	-1
CCCc1sc(N)nc1-c1ccc(C)cc1	8
O=C(Nc1ccc(OC(F)(F)F)cc1)N1CCN(c2ccnc3cc(Cl)ccc23)CC1	8
COc1ccc(OC)c(N/C=C/C(=C(C#N)C#N)N(C)C)c1	-14
Nc1ccc(C(=O)N/N=C/c2sc(N3CCOCC3)nc2-c2ccccc2)cc1	5
O=C(Nc1ncccn1)c1cc(-c2cccc(Br)c2)nc2ccccc12	9
COc1ccc([N+](=O)[O-])cc1NS(=O)(=O)c1ccc(Cl)c(C(=O)Nc2sc3c(c2C#N)CCCCC3)c1	20
CCOC(=O)Nc1nc(-c2ccc(Cl)cc2Cl)cs1	-8
CCOC(=O)c1c(C)[nH]c(C)c1C(=O)COC(=O)c1ccccc1O	13
CCOC(=O)c1cnn(CCOC(=O)c2cccc(F)c2)c1NC(=O)c1cccc(F)c1	6
COC(=O)c1ccccc1NC(=O)c1ccnn1C	-1
COc1cccc(CNC(=O)CCC2CCCN(Cc3ccc(OC(F)F)cc3)C2)c1 (stereo unspecified)	4
C=CCSc1nnc(CC(OC)OC)n1-c1ccccc1	12
CN(NS(=O)(=O)c1ccc(Cl)cc1)c1nc(C(F)(F)F)nc2ccccc12	9
Cc1cc(C)c(C)c(S(=O)(=O)NCc2ccc(C(=O)N3CCCC3)cc2)c1C	14
COC(=O)CN1C(=S)N(c2ccc(OC)cc2)C(=O)/C1=C/c1cccs1	11

More structures:
mol	Biofilm kill mix
COC(=O)C1=NN(c2ccc(Cl)cc2)C2C(=O)N(c3ccccc3OC)C(=O)C12 (stereo unspecified)	22
CC(C)(C)c1ccc(S(=O)(=O)NNC(=O)C2CCN(Cc3cccc(F)c3)CC2)cc1	-3
CCOC(=O)CCCCNC(=O)Nc1ccccc1	10
CC(=O)N(Cc1ccc(Br)cc1)c1ccccc1C(=O)O	13
O=C(NC1CCCC1)C(c1ccc(F)cc1)N(Cc1ccc(F)cc1)C(=O)CCl (stereo unspecified)	8
CC1(C)S/C(=N/N=C/c2ccco2)NC1=O	12
Cc1ccc(/C=C2/SC(=O)N(CC(=O)N3CCOCC3)C2=O)s1	10
COC(=O)c1cc(-c2ccc(Cl)cc2)n(-c2ccc(S(N)(=O)=O)cc2)n1	6
O=C(CCC(=O)N(CC(=O)NC1CCCCC1)Cc1ccccc1)Nc1ccccn1	-1
C=CCSc1nc(-c2ccc(OC)cc2)c(C#N)c(=O)n1CC=C	11
COc1ccc(NS(=O)(=O)c2cc(NC(=O)c3nc4nc(C)cc(C)n4n3)ccc2C)cc1	1
Cc1ccccc1CN1N=C(/C=C/c2ccccc2)CCC1=O	21
COC(=O)CSc1nc2ccc(NC(=O)c3ccccc3C(=O)N3CCOCC3)cc2s1	17
COc1ccc(NC(=O)NCc2ccco2)cc1OC	10
c1ccc(CSc2nnc(-c3cccs3)n2Cc2ccco2)cc1	-1
CCCc1cc(C(=O)NNC(=S)NCC)c2ccccc2n1	15
Cc1cc(Br)cc2c1NC(=O)C2(c1c(C)n(C)n(-c2ccccc2)c1=O)c1c(C)n(C)n(-c2ccccc2)c1=O	8
CCC(C)c1ccc(NC(=O)COc2c(F)c(F)c(C(F)(F)F)c(F)c2F)cc1 (stereo unspecified)	16
NC(=S)Nc1ccc2cc[nH]c2c1	7
CCN(CC)CCOC(=O)/C=C/c1ccccc1OC	18
COc1ccc(C2/C=C\CN(S(=O)(=O)c3ccc(C)cc3)CC(=O)N2Cc2ccc(F)cc2)cc1 (stereo unspecified)	13
CSc1nc2ccc(NC(=O)C3=NNC(=O)CC3)cc2s1	20
O=c1c2ccccc2nc(-c2ccc([N+](=O)[O-])cc2)n1O	12
O=c1c2ccccc2c(C=Nc2ccc(S(=O)(=O)N3CCCCC3)cc2)c(O)n1-c1ccc(Cl)cn1	15
Cc1nnc(SCC2=C(C(=O)O)N3C(=O)C(NC(=O)Cn4nc(C)c(Cl)c4C)C3SC2)s1 (stereo unspecified)	15

Quoted from the listing:
Biofilm kill mix result of `Cc1ccc(NS(=O)(=O)c2cc(N)ccc2Cl)c(C)c1` stands at 2
Biofilm kill mix result of `CCOC(=O)c1c(C)[nH]c(C)c1C(=O)COC(=O)c1ccccc1O` stands at 13
Biofilm kill mix result of `NCCCC[C@H](N)c1nnc([C@H](CCC(=O)O)NC(=O)C2CCNCC2)o1` stands at 21
Biofilm kill mix result of `CCCc1cc(C(=O)NNC(=S)NCC)c2ccccc2n1` stands at 15
Biofilm kill mix result of `COC(=O)C/C=C/[C@@H](C)[C@@H](/C=N/OC[C@@H](C)[C@H](OCc1ccccc1)C(C)C)NS(=O)(=O)c1ccc(C)cc1` stands at 14
Biofilm kill mix result of `O=C(Nc1ncccn1)c1cc(-c2cccc(Br)c2)nc2ccccc12` stands at 9
Biofilm kill mix result of `O=C(/C=C/c1cccc(F)c1)Nc1nccs1` stands at 8

Continuation:
mol	Biofilm kill mix
C/C(CCC(=O)OC[C@H]1O[C@H](C#Cc2ccccc2)C=C[C@@H]1Oc1ccc(C)cc1)=N\O[C@@H](C)CN1CCCCc2nc(C)c(C)cc21	16
CCCCN1C(=S)NC[C@@H]1Cc1ccccc1	21
CCN1C(=O)/C(=C2/Sc3ccc(OC)cc3N2C)SC1=Nc1ccc(OC)cc1	14
O=C(N/N=C/c1ccc2c(c1)OCO2)c1ccc2ccccc2n1	-2
COc1cc(N2C(=O)C=CC2=O)c(OC)cc1Cl	15
Oc1ccc2n[nH]nc2c1	21
CCCc1nnc(NC(=O)OCC)s1	7
Cc1cccc(C)c1NC(=O)CN(C)C(=O)C(c1ccccc1)c1ccccc1	13
Brc1ccc(CNc2cc3c(cc2Br)OCCO3)cc1	11
COc1ccc([N+](=O)[O-])cc1NC(=O)c1cc(C)c(C)o1	12
CC(C(=O)Nc1nc2ccccc2s1)n1cc([N+](=O)[O-])cn1 (stereo unspecified)	16
CCOC(=O)/C=C(/C)N1N=C(c2ccc(OC)cc2)CC1c1cccc([N+](=O)[O-])c1 (stereo unspecified)	22
COC(=O)c1ccccc1NC(=O)C(=O)NCc1ccncc1	30
COc1ccc(CN(C)CC(=O)NC(C)c2ccccc2)cc1OC (stereo unspecified)	18
COc1ccc(CCNCCC(=O)Nc2c(C)cc(C)cc2C)cc1OC	24
N[C@@H](Cc1ccc(O)cc1)c1nnc([C@H](CC(=O)O)NC(=O)C2CCNCC2)o1	7
CCCCC/C(=N\NC(=O)Nc1ccccc1)c1ccccc1	9
COc1ccc(NC(=S)Nc2cccc(S(=O)(=O)N3CCCCC3)c2)cc1	12
Cc1cc(C)nc(/N=C2\NC(=O)CC(C(=O)O)N2c2ccc(Cl)cc2Cl)n1 (stereo unspecified)	7
O=C(N/N=C/c1ccc(Cl)s1)c1ccccc1[N+](=O)[O-]	8
CCN(CC)c1ccc(-n2c(O)c(C=C3N=c4ccccc4=N3)sc2=S)cc1	7
CC(C)C1Cc2c(sc(NC(=S)NC(=O)c3ccccc3)c2C#N)CO1 (stereo unspecified)	11
CCOc1cc(N2CCOCC2)c(OCC)cc1NC(=O)c1oc2ccccc2c1C	16
CCCCCCn1c(=O)[nH]c2nc3cc(N)ccc3nc2c1=O	5
CCOC(=O)c1c(NC(=O)CC2SC(N)=NC2=O)sc(C)c1C (stereo unspecified)	24
